NPYLR7 agonist = agonists of mosquito NPYLR7 receptor, primary screen, cell-based, Aedes aegypti, calcium fluorescence, mosquito biting behavior; Aedes aegypti neuropeptide Y-like receptor 7 (NPYLR7); HEK293T NPYLR7/Galpha15, GCaMP6s calcium fluorescence; activation, % at 10 µM; 270,000 compounds, 0.15% hits; in the data active = activation above about 40%;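 also: 0% = vehicle and 100% = reference agonist at the receptor; some compounds past the cut are filed as inactive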
NPYLR7 agonist max-min = also measured in NPYLR7 agonist; calls as there; activation, %; measured here: Max-Min RFU normalised activation; some inactives read as strong as hits;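 span of the calcium signal over five minutes; 0% = vehicle and 100% = native peptide agonist; compound fluorescence can raise it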
* marks the source's active call; other numbers are inactive results; & = joins results of further samples. This is a subset; rates above refer to the full screens.

Second line of a record – NPYLR7 agonist	NPYLR7 agonist max-min
1) CCCCn1c(N)c(N(CC)C(=O)CCl)c(=O)[nH]c1=O
 : 1	1
2) Cc1cccc2nc(CNc3ccc(-c4nc(C5CC5)no4)cn3)cn12
 : 5	1
3) COc1ccc(Nc2ccc([N+](=O)[O-])cn2)cc1
 : -2	-5
4) CCCN(Cc1ccncc1)Cc1ccc(SC)cc1
 : 0	-4
5) CCC(Nc1nc(-c2ccncc2)nc2c1CCNC2)c1ccc(OC)cc1 (stereo not drawn)
 : 2	2
6) COc1ccc(-c2nc(=S)c3c([nH]2)Oc2ccccc2C3)c(OC)c1
 : 1	3
7) CN(C(=O)c1oc2ccccc2c1CSC1CCCCC1)C1CCS(=O)(=O)C1 (stereo not drawn)
 : 0	0
8) Cc1c(-c2cccc(NC(=O)Nc3ccc(Cl)cc3)c2)nc2ncccn12
 : 5	9
9) COC(=O)c1c(C)[nH]c(C(=O)COC(=O)c2ccc(F)c(F)c2)c1C
 : 16	6
10) CC1(C)CC(=O)c2cc3c(N)c(C(=O)Nc4ccc(Oc5ccccc5)cc4)sc3nc2C1
 : 5	6
11) Cc1ccc(C2CC(C(F)(F)F)n3ncc(C(=O)N4CCN(c5ccccc5)CC4)c3N2)cc1 (stereo not drawn)
 : -2	-7
12) COCCN(CC(=O)N1CCc2sccc2C1c1ccc(Cl)cc1Cl)S(=O)(=O)c1ccc(OC)cc1 (stereo not drawn)
 : 16	26
13) Cc1sc2nc(C3CC3)nc(N3CCNCC3)c2c1C
 : -1	7
14) O=C(NCc1ccco1)C1COC2(CCCCC2)N1C(=O)Cc1ccccc1 (stereo not drawn)
 : -1	9
15) Fc1cccc(-n2cc[nH]c2=S)c1
 : 2	-2
16) Cc1c(NCC(C)(C)C)cccc1C(=O)N(C)C
 : 1	-1
17) O=C(c1ccc2c(c1)OCO2)N1CCN(c2nccs2)CC1
 : 6	1
18) O=C(COC(=O)C1CC2CCCC(C1)C2=O)NC1CCCCC1 (stereo not drawn)
 : 11	18
19) CSCc1ccc(C(=O)NCc2ccc(F)cc2)o1
 : 3	0
20) CCCCc1nnc(SCCSc2nnc(CCCC)n2N)n1N
 : -3	-5

Along the list, from the results shown:
Nos. 12–20 in NPYLR7 agonist max-min read 26, 7, 9, -2, -1, 1, 18, 0, -5
Nos. 12–20 in NPYLR7 agonist read 16, -1, -1, 2, 1, 6, 11, 3, -3

The list goes on.
Second line of a record – NPYLR7 agonist	NPYLR7 agonist max-min
21) CC1CCCCN1C(=O)C(NC(=O)c1cccs1)C1CCN(C(=O)c2ccc(F)cc2)CC1 (stereo not drawn)
 : 25	25
22) C[C@@H]1CC2OC(=O)[C@@]3(C)C(=O)CC[C@@](C)(C23)[C@@]1(O)CCc1ccoc1 (stereo partly drawn)
 : 2	0
23) COc1ccccc1N1CCN(Cc2cnn(C)c2C)C(C)C1 (stereo not drawn)
 : -1	-3
24) COc1ccc(CNC(=O)CSc2n[nH]c(=O)c3cc(-c4ccc(F)cc4)nn23)cc1
 : -2	-6
25) O=C1CSC(=NN=Cc2ccc(I)o2)N1
 : 8	3
26) Cc1cccc(Oc2ccc(NC(=O)c3cc[nH]c(=O)c3)cn2)c1C
 : 2	0
27) NC(=O)CSc1nnc(C2CC2)n1C1CC1
 : 3	1
28) C=CCNC(=O)c1ccccc1N1CCC(NC(=O)c2ccc(OC)cc2)CC1
 : -2	2
29) CCn1c(C2CCCNC2)nn(Cc2cccc(C(=O)OC)c2)c1=O (stereo not drawn)
 : 3	2
30) Cc1ccc(-c2ncc(C(=O)NCCNC(=O)C(C)C)s2)c(C)c1
 : -4	-6
31) NC(=O)c1c(NCC(=O)NCc2ccc(F)cc2)sc2c1CCCC2
 : 0	-3
32) CCOC(=O)c1nc2cc(C)c(C)cc2nc1N1CCN(C(=O)C2CCN(C(C)=O)CC2)CC1
 : 4	2
33) Fc1ccc(-c2csc3nc[nH]c(=S)c23)cc1
 : 6	12
34) CCOC(=O)N1CCN(C2CCCN(C(=O)/C=C/c3cnn(C)c3)C2)CC1 (stereo not drawn)
 : 6	2
35) Cn1ccc2c(NC(=O)N3CCN(C(=O)C(C)(C)C)CC3)cccc21
 : -8	-9
36) COc1ccc(S(=O)(=O)n2nnc3ccccc32)cc1OC
 : -3	7
37) NC(=O)C1Cc2ccccc2N1 (stereo not drawn)
 : -1	9
38) Cc1cc(=O)[nH]c(-n2nc(-c3cccs3)cc2NC(=O)c2ccco2)n1
 : 2	3
39) Cc1ccc(/C=C/C(=O)N2CCCC(N3CCNC3=O)C2)s1 (stereo not drawn)
 : 9	7
40) O=C(Cn1cnc2sc3c(c2c1=O)CCC3)c1ccccc1
 : -1	3

Whole records as entered above. Order of values: NPYLR7 agonist, NPYLR7 agonist max-min
NC(=O)c1c(NCC(=O)NCc2ccc(F)cc2)sc2c1CCCC2 is listed as 0, -3
O=C(Cn1cnc2sc3c(c2c1=O)CCC3)c1ccccc1 is listed as -1, 3
CCOC(=O)c1nc2cc(C)c(C)cc2nc1N1CCN(C(=O)C2CCN(C(C)=O)CC2)CC1 is listed as 4, 2

Following part
Second line of a record – NPYLR7 agonist	NPYLR7 agonist max-min
41) CC(Cl)C(=O)NC(C)c1nnc(SCc2ccc(F)cc2)n1-c1ccc([N+](=O)[O-])cc1 (stereo not drawn)
 : 1	11
42) CN(C)CCOC(=O)COc1ccc(Cl)cc1
 : -3&-6&-4&-1	-10&-12&-5&8
43) CC1CCC2(CC1)NC(=O)N(CN1CCN(Cc3nc4ccccc4s3)CC1)C2=O (stereo not drawn)
 : 7	3
44) CCOc1ccc(-c2cccc(NS(=O)(=O)c3ccc(C)cc3C)c2)nn1
 : 12	18
45) COc1ccc(C2c3cccn3CCCN2Cc2ccc(Cl)cc2)cc1OC (stereo not drawn)
 : 4	-1
46) Cc1cc(C)n(CC(=O)NC2CC(=O)N(CCCc3ccccc3)C2)n1 (stereo not drawn)
 : 20	11
47) C=CCN(Cc1cccs1)C(=O)c1cc(Cl)c[nH]1
 : 5	3
48) Cc1ccc(NC(=O)CC2CSc3nc4c(cnn4-c4ccccc4)c(=O)n32)cc1C (stereo not drawn)
 : 2	1
49) CCOC(=O)Cc1c(C)nc(Cc2ccc(OC(C)C)cc2)[nH]c1=O
 : -1	-2
50) COc1ccc(NC(=O)c2sc(=O)n(Cc3ccc(OC(C)=O)cc3)c2C)cc1
 : 10	4
51) CCN1CCC(=NN2CCOCC2)CC1
 : -3	-3
52) CC(C)N1CCCC(C)(C(=O)Nc2ccc(OC(F)F)cc2)C1 (stereo not drawn)
 : 0	-2
53) CCOc1cccc(CN2CCC(Cc3ccc(OC)cc3)CC2)c1
 : 2	12
54) COc1cccc(OC)c1C(=O)N1CCN(C(C(=O)NCc2cccc(F)c2)C2CCCC2)CC1 (stereo not drawn)
 : -3	-3
55) Cc1ccc(C)c(S(=O)(=O)N2CCN(C(=O)C=Cc3ccsc3)CC2)c1
 : 1	6
56) CN(C)CCCN1C(=O)C(=O)C(=C(O)c2ccc(F)cc2)C1c1cccc([N+](=O)[O-])c1 (stereo not drawn)
 : -2	20
57) CCOc1cc(CNc2nn[nH]n2)cc(Br)c1OCc1ccccc1
 : -10	-16
58) COc1cccc(OCc2ccccc2)c1C(=O)NCc1cccnc1
 : -11	-18
59) CCCNC(=O)c1cc(=O)c(OCc2ccc(F)cc2)c[nH]1
 : 1	-1
60) Cn1cnnc1C1CCN(C(=O)c2cccc(C#CC(C)(C)O)c2)CC1
 : 6	3
61) CN(Cc1ccoc1)c1nc(C(C)(C)C)nc2c1cnn2C
 : 1	0
62) CCC(CC)n1nc(C)cc1NC(=O)c1ccncc1F
 : 14	6
63) Cc1ccc(C(=O)Nc2ccc(N3CCC(Cc4ccccc4)CC3)c(C(=O)N3CCCC3)c2)cc1[N+](=O)[O-]
 : -2	-2
64) CCCCN(C)C(=O)c1sc(=O)n(Cc2ccccc2)c1C
 : -4	-3
65) CCCC(=O)N1CCCC1(C)C(=O)Nc1ccc2nc(C)ccc2c1 (stereo not drawn)
 : -4	-9
66) CN(Cc1ccccc1F)C(=O)C1CC=CCC1 (stereo not drawn)
 : -3	-4
67) O=[N+]([O-])c1c(N2CCN(CCO)CC2)ccc2nonc12
 : -7	-8
68) COC1CCCCC1Nc1ccc(C)c(C)c1 (stereo not drawn)
 : -1	-2
69) CCC1CCCCN1Cc1nc2c(c(=O)n(C)c(=O)n2C)n1CCC(C)C (stereo not drawn)
 : 5	1
70) Cc1c(C(=O)N(C)C(C)C2CC2)cnn1-c1ccc(Br)cc1 (stereo not drawn)
 : 2	0
71) CC(C)CC(C)NC(=O)CCC(=O)N1CCc2ccccc2C1 (stereo not drawn)
 : -8	-16
72) C=CCN(Cc1cccc(OC)c1)C(=O)c1ccc2[nH]ccc2c1
 : 6	5
73) Cc1ccc(-n2nc(C(C)C)c(C(=O)NCc3ccncc3)c2C(C)C)cc1
 : -1	6
74) O=C(Cn1c(=O)n(CC2CC2)c2ccc(C(=O)O)cc21)NCc1cccs1
 : -1	-1
75) Cn1c(=O)[nH]c(=O)c2c1nc1n2CCCN1c1ccc(S(N)(=O)=O)cc1
 : 1	7
76) Cc1c(Cl)c(C(F)(F)F)nn1CC(=O)Nc1ccc(C#N)cc1
 : 5	4
77) O=C(CCC(=O)N1CC[C@@H](c2ccc(F)cc2)[C@H](O)C1)c1ccccc1
 : 4	1
78) Cc1nn2c(ncc3c(=O)n(CCCN(C)C)ccc32)c1-c1ccccc1
 : 5	9
79) COC(=O)C1CCN(Cc2cn(-c3ccccc3)nc2-c2ccc(OC)cc2)CC1
 : 3	5
80) O=C(O)C1Sc2[nH]c(=O)sc2C2c3ccccc3OC(=O)C12 (stereo not drawn)
 : 10&13	7&2

A second format for some results above.
32) CCOC(=O)c1nc2cc(C)c(C)cc2nc1N1CCN(C(=O)C2CCN(C(C)=O)CC2)CC1
  NPYLR7 agonist: 4 | NPYLR7 agonist max-min: 2

33) Fc1ccc(-c2csc3nc[nH]c(=S)c23)cc1
  NPYLR7 agonist: 6 | NPYLR7 agonist max-min: 12

34) CCOC(=O)N1CCN(C2CCCN(C(=O)/C=C/c3cnn(C)c3)C2)CC1 (stereo not drawn)
  NPYLR7 agonist: 6 | NPYLR7 agonist max-min: 2

A second format for 4 compounds above:
3	COc1ccc(Nc2ccc([N+](=O)[O-])cn2)cc1
- NPYLR7 agonist: -2
- NPYLR7 agonist max-min: -5
42	CN(C)CCOC(=O)COc1ccc(Cl)cc1
- NPYLR7 agonist: -3&-6&-4&-1
- NPYLR7 agonist max-min: -10&-12&-5&8
14	O=C(NCc1ccco1)C1COC2(CCCCC2)N1C(=O)Cc1ccccc1 (stereo not drawn)
- NPYLR7 agonist: -1
- NPYLR7 agonist max-min: 9
73	Cc1ccc(-n2nc(C(C)C)c(C(=O)NCc3ccncc3)c2C(C)C)cc1
- NPYLR7 agonist: -1
- NPYLR7 agonist max-min: 6

Going on with the list.
Second line of a record – NPYLR7 agonist	NPYLR7 agonist max-min
81) O=C(Cc1ccc(CO)cc1)N1CC(Oc2ccccc2F)C1
 : -3	-5
82) Cc1nn(C)c(C)c1CN(C(=O)c1cc(CC(C)C)no1)C1CC1
 : 13	9
83) Cc1cc(C)nc(-n2nc(C)c(C3(O)C(=O)Nc4ccc(F)cc43)c2N)n1 (stereo not drawn)
 : -10	-10
84) CC(C)CCn1c(N2CCN(c3ccccc3)CC2)nc2c1c(=O)n(C)c(=O)n2C
 : 24	20
85) CN1CCCN(c2ncccc2CNC(=O)C2(C)CCCO2)CC1 (stereo not drawn)
 : 1	-2
86) O=C1CCC(C(=O)N2CCCCO2)CN1Cc1ccccn1 (stereo not drawn)
 : 1	3
87) Cc1cnc2c(C(=O)N3CCCC(c4nc(CC(C)C)no4)C3)cnn2c1 (stereo not drawn)
 : 11	-5
88) O=C(NC1CCS(=O)(=O)C1)c1ccc2oc(Cc3ccccc3)nc2c1 (stereo not drawn)
 : -3	-8
89) O=C1CCCc2nc3nc(-c4cccnc4)nn3cc21
 : 1	0
90) CC(C)CC(C)N(C)C(=O)NCc1cccs1 (stereo not drawn)
 : 7	3
91) COc1ccc(C(=O)N2C(C(=O)NCc3cccnc3)COC23CCN(C(=O)Cc2cccs2)CC3)cc1 (stereo not drawn)
 : 1	5
92) CC(c1ccc2c(c1)OCCO2)N(C)C(=O)c1cn(C2CCCCC2)nn1 (stereo not drawn)
 : 0	1
93) Cc1c(CN(C)Cc2ccc(C#CC(C)(C)O)s2)cnn1C
 : 4	0
94) CC(=O)Nc1cccc(NC(=O)C(=O)NCCc2ccc3c(c2)CCCN3C)c1
 : -5	-6
95) O=C(NCc1ccc2c(c1)OCO2)c1ccccc1NS(=O)(=O)c1ccc(Br)cc1
 : -1	6
96) Cc1cccc(-c2cnc(C3CCCN3C(=O)c3cnc(C)cn3)[nH]2)c1 (stereo not drawn)
 : 3	-2

High-throughput results from PubChem.
